Assay outcomes deposited in PubChem BioAssay by several laboratories.
Sa RN4220 lethal = S. aureus RN4220 growth inhibition; OD600, 16 h; inhibition, % (concentration not given with the values); hit rate 0.33% among 330,000; AID 1259311;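 active = z-score of -3 or lower and OD600 up to 0.18 on both plates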;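 also: plate controls were untreated cells for no effect and reference antibiotic for full effect; stock transfer was 100 nL into about 80 µL; one replicate is shown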
Mtb hypoxia inh = inhibitors of hypoxia-regulated fluorescent reporter in Mycobacterium tuberculosis | M. tuberculosis hypoxia-regulated fluorescent reporter, fluorescence | fluorescence inhibition, % (test concentration not listed) | hit rate 0.1% among 300,000 | AID 1159583;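 active = 35 to 45% if threefold the growth effect, above 45% if 1.5-fold the growth effect; inactive = the rest, general growth blockers included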;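 also: wells of about 50 µL received 100 nL stock; 0% = vehicle wells and 100% = reference inhibitor wells; whole bacteria with a GFP reporter of the hypoxia response; strong numbers were not always called active; many hits fall short of the cut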
Bead autofluor = flagged as autofluorescent in microsphere protease counterscreen; compound autofluorescence counterscreen, microsphere flow cytometry; stronger effect = higher value; fluorescence intensity (test concentration not listed); hit rate 3.1% among 360,000;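 active = at least 3 SD above the mean of all compounds, about 16000 in these data; inconclusive = too few beads counted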;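 also: 100 nL of 1 mM stock went into each well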
BJeLR lethal = BJeLR cell viability loss; inhibition, % (test concentration not listed); AID 1554; BJeLR (HRASV12) viability, CellTiter-Glo ATP luminescence, 48 h; reference of the scale not given here; hit rate 0.17% among 300,000;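 active = replicate mean above 50%; inconclusive = above 50% but judged a plate artefact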;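 also: 50 nL library stock added to about 25 µL; numbers are from one replicate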
Sa ugtP lethal = growth inhibition of S. aureus ugtP deletion strain; S. aureus RN4220 ugtP deletion, OD600 growth, 16 h; some inactives read as strong as hits; growth inhibition, % (no concentration beside the values); hit rate 0.54% among 330,000; AID 1259309;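 active = z-score under -3 and OD600 up to 0.15 on both plates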;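 also: plate controls were untreated wells for no effect and antibiotic for full effect; wells of about 80 µL received 100 nL stock; the first replicate is given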
PrP 5UTR inh = suppresses PrP 5' UTR mRNA reporter expression. cell-based PrP 5' UTR mRNA reporter, plate reader. inhibition, % (test concentration not listed). hit rate 0.35% among 340,000. AID 488862;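 active = every replicate at 50% or more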;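 also: 0 = median of the neutral control wells; tested in H4 reporter cells; numbers are from one replicate; inactives centre near -14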
Mtb hypoxia inh growth = further read-out of Mtb hypoxia inh, marked with its call; growth inhibition, %; measured here: M. tuberculosis growth (absorbance);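 0% = vehicle and 100% = reference antibiotic; read after six days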
An asterisk follows results filed as active; ? = inconclusive; . = not tested or not shown. The order is random. About 4% of those tested had a hit in this group.

SMILES | Sa RN4220 lethal | Mtb hypoxia inh | Mtb hypoxia inh growth | Bead autofluor | BJeLR lethal | Sa ugtP lethal | PrP 5UTR inh
O=C1c2ccsc2SCCN1Cc1ccc(F)cc1 | 7.0 | 6 | 9 | 3829 | -2 | 15 | .
O=C(O)COc1ccccc1 | 5.3 | -1 | 3 | 4298 | . | 9 | 5
CC(c1ccccc1)N1C(=O)NC(NC(=O)c2cccnc2)(C(F)(F)F)C1=O (configuration not stated) | 4.0 | 2 | 9 | 8974 | 11 | -3 | -6
O=C1OCc2ccc(NC(=O)c3ccccc3C(=O)O)cc21 | 0.8 | 5 | -3 | 4518 | -3 | 7 | -6
Cc1ccc(C=NNC(=O)c2cccc3ccccc23)o1 | 1.8 | 4 | 13 | . | . | 2 | .
O=Cc1cn(CC(=O)Nc2ccc3c(c2)OCO3)c2ccccc12 | -1.6 | -4 | 6 | 4343 | 4 | -2 | -3
O=C(c1ccc([N+](=O)[O-])cc1)N1CCc2ccccc2C1 | -1.2 | 4 | 6 | 2506 | 6 | -7 | -5
COc1ccc(OCC(=O)Nc2c3c(nn2-c2ccccc2)CS(=O)(=O)C3)cc1 | 0.4 | 9 | -5 | 6397 | 0 | 5 | -13
COC(=O)c1ccc2c(=O)n(CCCCCC(=O)NCCNC(C)=O)c(=O)[nH]c2c1 | 10 | 6 | 1 | 3224 | 2 | 3 | 4
O=C(Cc1ccc([N+](=O)[O-])cc1)N1CCN=C1SCc1ccccc1 | 3.0 | 7 | 11 | 2109 | -13 | -6 | -9
C=CCC1(C#N)C(=S)NC(C)=C(C(=O)OCC)C1c1ccccc1 (configuration not stated) | -2.3 | -5 | -8 | . | 2 | -8 | .
COc1ccccc1CNC(=O)CN1C(=O)c2ccccc2S1(=O)=O | -2.4 | 5 | 2 | 4075 | -2 | 1 | -12
COCCNC(=O)c1cc(-c2ccccc2C)nn1CC1CC(c2cccnc2)=NO1 (configuration not stated) | 9.0 | 11 | 4 | 2895 | . | 1 | -9
CCOC(=O)N1CCN(C(=O)CNC2CCCCCCC2)CC1 | 6.5 | 14 | 11 | 4288 | 1 | 10 | -17
CCOC(=O)c1cc(-c2cccc([N+](=O)[O-])c2)nc2[nH]c(=O)[nH]c(=O)c12 | 3.0 | 7 | 1 | 2565 | 7 | 5 | -2
Cc1ccc(N2C(=O)C(Cl)=C(N3CCOCC3)C2=O)c(C)c1 | 4.4 | 2 | 3 | 3320 | -7 | 4 | -32
CN(C)c1ccc(C=NN=Cc2ccccc2O)cc1 | 0.1 | -1 | -3 | . | . | -3 | .
COc1cccc(C2CC(=O)Nc3c2c(=O)n(C)c(=O)n3C)c1OC (configuration not stated) | 0.9 | 1 | 1 | 6284 | 10 | 1 | -62
O=C(O)c1ccc(CSc2nnc(-c3ccncc3)n2-c2ccc(Cl)cc2)cc1 | 3.8 | 11 | 5 | 3379 | 5 | -3 | -21
O=C(CN1CCN(S(=O)(=O)c2cc(Cl)ccc2Cl)CC1)c1ccc(O)c(O)c1 | -3.4 | 3 | -4 | 4311 | -13 | -7 | -5
O=C1C=C(c2cccc(Cl)c2)CC(c2ccc(Cl)cc2)C1 (configuration not stated) | 0.6 | 1 | 5 | . | . | 3 | .
CC(=O)C1=C(C)Nc2ncnn2C1c1ccc(Br)cc1 (configuration not stated) | 3.0 | 16 | 13 | 2715 | 7 | -4 | -21
N#Cc1ccc(S(=O)(=O)NC2CCCCNC2=O)cc1 (configuration not stated) | 3.4 | 15 | 6 | 3770 | -2 | 6 | .
O=C(CSCCO)Nc1cc(C(F)(F)F)ccc1Cl | 4.4 | 16 | 9 | 11257 | -1 | 1 | -16
O=C(NN=Cc1cc(Br)cs1)c1c[nH]c2ccccc12 | 5.8 | 3 | -1 | . | . | -14 | .

The listing continues:
SMILES | Sa RN4220 lethal | Mtb hypoxia inh | Mtb hypoxia inh growth | Bead autofluor | BJeLR lethal | Sa ugtP lethal | PrP 5UTR inh
CCOCCOC(=O)c1[nH]c2c(c1C)C(=O)CC(c1ccccc1)C2 (configuration not stated) | 0.7 | 10 | 7 | 3128 | 53* | -1 | 81*
CCc1ccccc1Nc1nc2ccccc2n1CC | 5.9 | 1 | -4 | 4589 | 5 | -1 | -15
Cc1cc(=O)[nH]c(SCC(=O)Nc2ccc3c(c2)OCCO3)n1 | 6.0 | 1 | 1 | 3311 | -14 | 1 | -9
CC12CCC(C(=O)OC3CCCCC3)(OC1=O)C2(C)C (configuration not stated) | 2.1 | 8 | 6 | 3643 | 4 | 3 | -8
CSCC(C)N1CCC(n2nccc2NC(=O)c2ccccc2C)CC1 (configuration not stated) | 1.3 | 7 | 8 | 5100 | 6 | 5 | -33
O=C(NCCc1ccccc1)C1CCN(S(=O)(=O)N2CCOCC2)CC1 | 1.3 | -5 | 1 | 4427 | 0 | 2 | -13
COc1cccc(C(=O)NNC(=O)c2cccc(F)c2)c1 | 0.0 | 6 | -3 | 3743 | 3 | 3 | -52
CCOc1ccc(N2C(=O)/C(=C\c3ccccc3OC)S(=O)(=O)C2c2cccc([N+](=O)[O-])c2)cc1 (configuration not stated) | 6.7 | 4 | 4 | 2753 | 10 | 0 | -14
Cc1cc(C(=O)NN=C/C(Br)=C/c2ccccc2)c(C)o1 | -11 | 7 | 5 | . | . | -11 | .
Cc1cc(OCC(=O)Nc2ccccc2N2CCCCC2)ccc1C(C)C | -7.4 | 3 | -4 | 5253 | -8 | 4 | -8
COc1ccc(C(c2nnnn2C2CCCCC2)N2CCN(c3ccc(OC)cc3)CC2)cc1 (configuration not stated) | -0.1 | . | . | 5212 | -10 | 14 | -10
CCCOC(=O)C1=C(C)NC(=O)NC1c1cc2c(cc1Br)OCO2 (configuration not stated) | 1.4 | -14 | -3 | 4101 | -17 | -1 | -1
CCC(C)NS(=O)(=O)c1ccc(NC(=O)Cc2ccc(OC)cc2)cc1 (configuration not stated) | 4.3 | -3 | 5 | 4389 | 8 | -6 | 4
O=C(CNC(=O)c1cccs1)Nc1ncccc1O | 1.8 | 6 | -3 | 5683 | -6 | 3 | -12
Cc1ccc(S(=O)(=O)NNC(=O)c2sccc2-n2cccc2)cc1 | 11 | 8 | 10 | 9065 | -13 | -15 | -23
Oc1ccc(C2=CSC3=NCCN23)cc1O | 4.6 | 17 | 5 | 3756 | -6 | 6 | -6
O=C1C=C(c2ccc(Oc3ccccc3)cc2)CC(c2ccc(Cl)cc2)C1 (configuration not stated) | -9.2 | -1 | 0 | . | . | -4 | .
C=CCn1c(SCC(=O)Nc2ccc(NC(=O)c3ccco3)c(OC)c2)nnc1-c1ccncc1 | 4.3 | -4 | 0 | 4338 | -10 | -19 | 0
O=C(COc1ccc(Cl)cc1)NCc1nnc(SCC(=O)NCc2ccc3c(c2)OCO3)o1 | -6.7 | . | . | 3821 | 4 | 5 | -14
Cc1cccc2cc(CN(CCc3ccccc3)C(=O)N3CCOCC3)c3nnnn3c12 | 0.0 | 0 | -3 | 3494 | -15 | -4 | -9
O=C(COC(=O)c1cnc(Cl)c(Cl)c1)Nc1cccc(S(=O)(=O)N2CCOCC2)c1 | 3.9 | 4 | 6 | 3405 | . | 5 | -32
Cn1cnc([N+](=O)[O-])c1S(=O)(=O)Nc1ccccc1 | -2.1 | . | . | 3900 | . | -1 | -16
CCc1nnc(NC(=O)CSc2nnc(-c3ccncc3)n2Cc2ccccc2)s1 | -1.3 | -11 | -3 | . | 20 | -5 | .
COc1ccc(OC)c(-c2cc(C(=O)NCCCn3ccnc3)no2)c1 | 3.6 | -3 | -2 | 24152* | 14 | -1 | -14
CCOC(=O)C1C(C(C)=O)=C(c2ccccc2)c2ccccc2N1S(=O)(=O)C(F)(F)F (configuration not stated) | 7.9 | -3 | 3 | 3966 | . | 11 | 42

Three compounds from above, reduced to BJeLR lethal and Mtb hypoxia inh growth:
| smiles | BJeLR lethal | Mtb hypoxia inh growth |
| --- | --- | --- |
| Cc1cc(=O)[nH]c(SCC(=O)Nc2ccc3c(c2)OCCO3)n1 | -14 | 1 |
| CC12CCC(C(=O)OC3CCCCC3)(OC1=O)C2(C)C (configuration not stated) | 4 | 6 |
| CSCC(C)N1CCC(n2nccc2NC(=O)c2ccccc2C)CC1 (configuration not stated) | 6 | 8 |

As entered above.
Under Mtb hypoxia inh, `COc1ccc(OC)c(-c2cc(C(=O)NCCCn3ccnc3)no2)c1` is listed with -3
Under Mtb hypoxia inh growth, `Cc1cc(C(=O)NN=C/C(Br)=C/c2ccccc2)c(C)o1` is listed with 5
Under Bead autofluor, `CSCC(C)N1CCC(n2nccc2NC(=O)c2ccccc2C)CC1` (configuration not stated) is listed with 5100
Under Sa RN4220 lethal, `O=C(NCCc1ccccc1)C1CCN(S(=O)(=O)N2CCOCC2)CC1` is listed with 1.3
Under BJeLR lethal, `CCCOC(=O)C1=C(C)NC(=O)NC1c1cc2c(cc1Br)OCO2` (configuration not stated) is listed with -17
Under PrP 5UTR inh, `CC12CCC(C(=O)OC3CCCCC3)(OC1=O)C2(C)C` (configuration not stated) is listed with -8

(list continues)
SMILES | Sa RN4220 lethal | Mtb hypoxia inh | Mtb hypoxia inh growth | Bead autofluor | BJeLR lethal | Sa ugtP lethal | PrP 5UTR inh
CC1(C)C(=O)OC(c2cccs2)C2(CCCCC2)C1=O (configuration not stated) | 5.4 | 11 | 6 | 3654 | 0 | -5 | -9
CNC(=O)CN(CCc1ccccc1)S(=O)(=O)c1ccc(OC)cc1 | 6.3 | -3 | 8 | 3780 | -5 | 5 | -14
Cn1nnnc1SCc1ccc(F)cc1 | 15 | . | . | 2181 | 2 | 14 | 10
CCOC(=O)C1C(c2cccc(Cl)c2Cl)NC(=O)NC1(O)C(F)(F)F (configuration not stated) | 5.5 | 5 | -3 | ? | 4 | 3 | -29
C/C(N)=C(/C#N)C(=O)CSc1nc2ccccc2c(=O)n1-c1ccc(C)c(Cl)c1 | -7.5 | 4 | -2 | 2261 | -11 | -19 | 7
O=C(O)CSc1ccc2nnc(-c3cccnc3)n2n1 | 9.3 | -3 | -15 | 1965 | 4 | 8 | -31
C#CCNC(=O)C1=C[C@@H](c2ccc(C(F)(F)F)cc2)C[C@@H](OCCCCO)O1 | . | . | . | 3157 | -13 | . | -22
CCn1c(CC(=O)Nc2ccccc2)nnc1SCC(=O)NC1=NCCS1 | 0.3 | -5 | -1 | 3757 | 4 | 7 | -13
Cc1ccc(S(=O)(=O)N2CCN(C)CC2)c(C)c1N(C)S(=O)(=O)c1ccc(Cl)cc1 | 5.2 | . | . | 4027 | -1 | 3 | -15
O=C(NN=C1CCCC1)c1cc(-c2ccccc2)n[nH]1 | -0.3 | 8 | 1 | 1976 | -5 | 4 | 8
Cc1cc(C)n(-c2ccc(NC(=O)C3CCN(Cc4ccc(C)o4)CC3)cc2)n1 | 0.0 | 3 | -6 | 4499 | -5 | 0 | 2
Cc1ccc(C(=O)NCC2CCCO2)o1 (configuration not stated) | 3.5 | 11 | 16 | 9095 | -2 | 4 | -10
O=C(/C=C/CCc1ccc2c(c1)OCO2)N1CCCCC1 | 4.6 | . | . | 5208 | . | -3 | -18
C=CC[N+]1(C)CC[C@]23c4c5ccc(O)c4O[C@H]2C(=O)CC[C@@]3(O)[C@H]1C5 (some centres not stated) | . | . | . | 5969 | 0 | . | -13
Cc1cc(C)n2c(SCC(=O)Nc3cccc(S(N)(=O)=O)c3)nnc2n1 | 2.1 | 6 | 2 | 4041 | . | 6 | -16
CCC(C)C(N)C(=O)NC(CCC(=O)OCc1ccccc1)C(N)=O (configuration not stated) | -19 | 5 | 6 | 3274 | 6 | -9 | -19
O=C1NC(=O)C(=Cc2ccc(N3CCOCC3)cc2)C(=O)N1 | 0.4 | 9 | -2 | 4262 | -9 | 4 | -54
Cc1ccc(NC(=O)CCC(=O)OCC(F)(F)C(F)F)cc1 | 1.0 | -6 | -11 | 21194* | -2 | -1 | -6
O=C(NN=Cc1cccnc1)c1ccc([N+](=O)[O-])cc1Cl | 4.7 | 4 | 8 | . | . | 2 | .
CC(C)n1c(O)c(N=NC(=O)c2ccccc2NS(=O)(=O)c2cccs2)c2ccccc21 | 3.7 | 10 | -2 | 2760 | -3 | 15 | -6
O=C(Nc1ccc(N2C(=O)C3CCCCC3C2=O)cc1Cl)c1cccs1 (configuration not stated) | 2.0 | 6 | 1 | 4440 | 1 | 5 | -29
CCCCCN(C(=O)COC(=O)CSc1ccc([N+](=O)[O-])cc1)c1c(N)n(CCCC)c(=O)[nH]c1=O | 3.7 | 5 | -2 | 6539 | 7 | 8 | -30
C=C(Cl)COc1ccc2c(CC)cc(=O)oc2c1 | 6.5 | 13 | 12 | 8366 | . | 0 | -25
